Assay outcomes (PubChem)
rRNA inh HTS: inhibits bacterial ribosomal RNA function over humanized ribosomes; GFP signal change (wild-type ribosome), % (concentration not given with the values); AID 720706; hit rate 1.6% among 350,000; E. coli WT GFP vs humanized-ribosome RFP mutants, fluorescence, 24 h; hits give low values; DMSO median 0, no signal -100;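 active = significant combined selectivity score with lowered wild-type GFP, culture density cut under 30%, mutant RFP and density less affected; inactive = any of these conditions unmet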; note: one replicate is shown; some compounds called inactive have numbers as strong as hits
rRNA inh HTS OD600: recorded beside rRNA inh HTS, whose call it bears; OD600 change, %; measured here: OD600 growth;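 optical density of the mix in the first replicate; 0 = DMSO median and -100 = no signal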
rRNA inh HTS RFP: also measured in rRNA inh HTS; calls as there; RFP signal change, %; measured here: RFP humanized mutant strains;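 first replicate; 0 = DMSO median and -100 = no signal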
The depositor's hits bear a star.

SMILES	rRNA inh HTS	rRNA inh HTS OD600	rRNA inh HTS RFP
CN(C)CC(=O)N[C@@H]1CC[C@@H](CCNC(=O)C2CC2)O[C@@H]1CO	1	7	-4.1
C[C@H](CO)N1C[C@H](C)[C@H](CN(C)S(=O)(=O)c2ccccc2)Oc2c(NC(=O)c3cnccn3)cccc2C1=O	-5	6	2.1
COc1ccc(NC(=O)C2(C)CCN2CCc2ccccc2)cc1OC (stereo unspecified)	-29	-41	-8.0
C[C@@H]1CCCCO[C@H](CN(C)CC2CCCCC2)[C@H](C)CN([C@@H](C)CO)C(=O)c2cc(NC(=O)Nc3ccc4c(c3)OCO4)ccc2O1	-9	-28	16
C[C@@H]1CCCCO[C@@H](CN(C)C(=O)C2CCCCC2)[C@@H](C)CN([C@@H](C)CO)C(=O)c2cc(NC(=O)Nc3ccc(F)cc3)ccc2O1	3	0	-0.2
C[C@@H]1CN([C@H](C)CO)C(=O)Cc2cc(N(C)C)ccc2O[C@H]1CN(C)S(=O)(=O)c1ccc(F)cc1	1	-2	-0.7
C[C@@H]1CN([C@@H](C)CO)S(=O)(=O)c2ccc(C3=CCCCC3)cc2O[C@@H]1CN(C)C(=O)c1ccncc1	0	-6	-5.9
C=CCn1c2c(c3ccccc31)CCC2	5	5	3.9
C[C@@H]1CCCCO[C@H](CN(C)S(=O)(=O)c2ccc(F)cc2)[C@H](C)CN([C@H](C)CO)C(=O)c2cc(NC(=O)NC3CCCCC3)ccc2O1	0	3	0.4
COc1cc(/C=C/C(=O)OCC(=O)c2ccc[nH]2)ccc1O	-5	-4	3.2
COc1cccc(-c2ccc3c(c2)[C@H]2[C@H](CCN2C(=O)NC2CCCC2)[C@H](CO)N3C)c1	2	2	3.5
CNC(=O)C[C@@H]1CC[C@H]2[C@@H](COC[C@H](O)CN2C(=O)c2ccc3c(c2)OCO3)O1	6	7	12
O=S(=O)(c1ccc(F)c(F)c1)N1CCCCCCC1	-2	-26	-0.8
COCC(=O)N1CC(=O)N2[C@H](CO)[C@H](c3ccc(C#CC4CCCC4)cc3)[C@@H]2C1	7	-4	-1.9
C[C@@H]1CN([C@H](C)CO)C(=O)c2cc(NC(=O)C3CCCCC3)ccc2O[C@@H](C)CCCCO[C@H]1CN(C)C(=O)Cc1ccccc1	-1	-3	0.7
N#C[C@H]1[C@@H](c2ccccc2)[C@H](CO)N1C(=O)c1cc(Cl)cc(Cl)c1	-2	0	2.9
C[C@H](CO)N1C[C@H](C)[C@H](CN(C)S(=O)(=O)c2ccc(F)cc2)OCc2cnnn2CCCC1=O	1	0	-0.6
C[C@H]1CN([C@@H](C)CO)C(=O)c2cc(NS(C)(=O)=O)ccc2O[C@H]1CN(C)Cc1ccc2c(c1)OCO2	4	0	2.0
COc1cccc(CNC(=O)C[C@@H]2CC[C@@H](NC(C)=O)[C@@H](CO)O2)c1	3	11	-0.7
CN(C)C(=O)C[C@@H]1CC[C@@H](NC(=O)c2ccc(F)cc2)[C@@H](CO)O1	3	9	0.8
CC1Cc2ccccc2N1CC(=O)Nc1cc(S(=O)(=O)N2CCOCC2)ccc1Cl (stereo unspecified)	10	21	31
CC(C)NC(=O)Nc1ccc2c(c1)C(=O)N([C@@H](C)CO)C[C@@H](C)[C@@H](CN(C)C(=O)c1ccccc1)OCCCC[C@@H](C)O2	-2	-3	-0.2
COC(=O)C[C@@H]1CC[C@H]2[C@@H](COc3ccc(NC(=O)c4ccccc4F)cc3C(=O)N2C)O1	4	3	-0.8
O=C(Cc1ccncc1)Nc1ccc2c(c1)[C@@H]1C[C@@H](CC(=O)N3CCc4ccccc4C3)O[C@@H](CO)[C@@H]1O2	-1	14	-0.1
CC(=O)N1[C@@H]2CN(S(=O)(=O)c3ccccc3C)c3ccccc3[C@@H]2[C@@H]1CO	2	0	2.2
COc1ccccc1NC(=O)Nc1nc(C(N)C2CCCCC2)cs1 (stereo unspecified)	-56	-79	-15
CCNC(=O)C[C@H]1CC[C@@H]2[C@@H](COc3ccc(NC(=O)Nc4c(C)noc4C)cc3C(=O)N2C)O1	6	11	-3.7
COc1cccc(S(=O)(=O)Nc2ccc3c(c2)[C@@H]2C[C@@H](CC(=O)NC4CCCCC4)O[C@@H](CO)[C@@H]2O3)c1	-6	-20	0.5
CNC[C@H]1Oc2ccc(NC(=O)C3CC3)cc2C(=O)N([C@@H](C)CO)C[C@H]1C	2	6	-2.7
Cc1ccc(-c2ccc3c(c2)O[C@@H](CN(C)C(=O)Nc2ccccc2)[C@H](C)CN([C@H](C)CO)S3(=O)=O)cc1	-3	-16	5.6
O=C(NCc1ccccc1F)[C@@H]1[C@@H](CO)[C@@H]2Cn3c(cccc3=O)[C@@H]2N1C(=O)CC1CC1	4	7	-0.2
O=C(C1CCCCC1)N1CC2(C1)[C@H](c1ccccc1)[C@@H](CO)N2Cc1nccs1	0	5	-0.7
C[C@H](CO)N1C[C@H](C)[C@@H](CN(C)C(=O)Nc2ccc(F)cc2)Oc2ccc(NC(=O)CCN3CCOCC3)cc2C1=O	4	13	0.1
C[C@H]1CN([C@@H](C)CO)C(=O)c2cccc(NC(=O)Nc3ccc(C(F)(F)F)cc3)c2O[C@@H]1CN(C)Cc1ccc(-c2ccccc2)cc1	-3	0	-2.5
O=C(C[C@H]1C=C[C@@H](NC(=O)c2ccccc2)[C@@H](CO)O1)Nc1ccc(-c2ccccc2)cc1	-51	-73	-11
O=C(Nc1cccc(Oc2ccccc2)c1)C1Cc2c(-c3ccc4c(c3)OCO4)ccnc2O1 (stereo unspecified)	20	16	4.2
Cc1noc(C)c1NC(=O)N(C)C[C@H]1Oc2ccc(NC(=O)Nc3cccc4ccccc34)cc2C(=O)N([C@@H](C)CO)C[C@H]1C	-2	0	1.6
O=C(NCC[C@@H]1CC[C@H](NC(=O)C2CC2)[C@@H](CO)O1)c1ccc(F)cc1	1	1	-0.6
C[C@@H]1CN([C@@H](C)CO)C(=O)c2cc(C#Cc3ccccc3F)cnc2O[C@H]1CN(C)C(=O)c1ccc2c(c1)OCO2	2	-2	0.8
Cc1noc(C)c1NC(=O)N(C)C[C@@H]1Oc2ccc(NC(=O)Cc3cn(C)c4ccccc34)cc2CC(=O)N([C@@H](C)CO)C[C@@H]1C	1	16	-2.3
Cc1ccc(-c2nc3ccc(Br)cn3c2Cc2cccc(Cl)c2)cc1	-35	-57	6.0
Nc1nc(N)c2cc(Sc3cccc(C(F)(F)F)c3)ccc2n1	-53	-80	-16
C[C@@H]1CCCCO[C@H](CN(C)S(C)(=O)=O)[C@@H](C)CN([C@H](C)CO)C(=O)c2cc(NC(=O)CCCN(C)C)ccc2O1	0	0	1.4
C[C@@H]1CN([C@@H](C)CO)C(=O)Cc2cc(NS(=O)(=O)c3ccccc3)ccc2O[C@H]1CN(C)S(=O)(=O)c1cn(C)cn1	1	7	0.4
C[C@@H]1CN([C@H](C)CO)C(=O)c2cc(NS(=O)(=O)c3ccc(Cl)cc3)ccc2O[C@H]1CN(C)C(=O)Nc1cccc2ccccc12	-2	-8	1.3
CN1C(=O)c2cc(NC(=O)C3CCC3)ccc2OC[C@@H]2O[C@H](CC(=O)NCc3ccccc3F)CC[C@@H]21	1	-4	-1.9
Cc1ccc(S(=O)(=O)N(C)C[C@H]2Oc3ccc(NC(=O)Nc4ccc(F)cc4)cc3CC(=O)N([C@H](C)CO)C[C@@H]2C)cc1	0	2	-1.9
Cc1ccc2nc(N(CCN(C)C)C(=O)C3CCN(S(=O)(=O)c4cccs4)CC3)sc2c1	-11*	0.4*	4.6*
Nc1sc(-c2ccccc2)cc1C(=O)N1CCN(c2ccccc2)CC1	-4	7	3.1
O=C(NCC[C@@H]1CC[C@H](NC(=O)C2CCC2)[C@H](CO)O1)c1cnccn1	0	-1	0.1

Ordered by the number under rRNA inh HTS OD600 (falling): some entries from above
mol	rRNA inh HTS OD600
C[C@@H]1CN([C@@H](C)CO)C(=O)Cc2cc(NS(=O)(=O)c3ccccc3)ccc2O[C@H]1CN(C)S(=O)(=O)c1cn(C)cn1	7
Cc1ccc2nc(N(CCN(C)C)C(=O)C3CCN(S(=O)(=O)c4cccs4)CC3)sc2c1	0.4*
Cc1ccc(-c2nc3ccc(Br)cn3c2Cc2cccc(Cl)c2)cc1	-57

Continuation:
SMILES	rRNA inh HTS	rRNA inh HTS OD600	rRNA inh HTS RFP
C[C@H](CO)N1C[C@H](C)[C@@H](CN(C)C(=O)Cc2ccccc2)OCCCC[C@H](C)Oc2ccc(NC(=O)CCC(F)(F)F)cc2C1=O	1	4	0.7
C[C@H]1CCCCO[C@H](CN(C)C(=O)Nc2ccc(F)cc2)[C@@H](C)CN([C@@H](C)CO)C(=O)c2cc(NS(=O)(=O)c3cn(C)cn3)ccc2O1	-3	4	-2.0
COc1ccc(NC(=O)N(C)C[C@@H]2Oc3ccc(NC(=O)C4CC4)cc3CC(=O)N([C@@H](C)CO)C[C@H]2C)cc1	2	4	-1.1
CCc1ccc([C@H]2C[C@H]3[C@H]4C(=O)N(c5ccccc5)C(=O)[C@H]4CC(=O)[C@@H]3CN2S(=O)(=O)c2ccc(C)cc2)cc1	11	10	0.9
CC(C)NC(=O)N(C)C[C@@H]1Oc2c(NC(=O)C3CCCCC3)cccc2C(=O)N([C@@H](C)CO)C[C@H]1C	2	2	-1.3
C[C@@H]1CCCCO[C@H](CN(C)C(=O)c2ccccc2)[C@@H](C)CN([C@@H](C)CO)C(=O)c2cc(NS(=O)(=O)c3ccccc3)ccc2O1	-1	1	3.4
CC(C)[C@H](CO)NC(=O)[C@H]1O[C@@H](n2ccc(=O)[nH]c2=O)[C@H](O)[C@@H]1O	14	7	-0.1
CCC(=O)Nc1ccc2c(c1)C(=O)N(C)C[C@@H](OC)[C@H](C)CN(C(=O)c1ccccn1)[C@H](C)CO2	3	0	-2.0
CCc1csc(N2[C@H](C#N)[C@H](c3ccccc3C3=CCCC3)[C@H]2CO)n1	-12	-32	-3.7
C[C@H]1CN([C@@H](C)CO)S(=O)(=O)c2ccc(C#CCC3CCCC3)cc2O[C@H]1CN(C)C(=O)c1ccccn1	-1	-32	31

The closing 7 entries of the part above are carried over, then new ones follow:
SMILES	rRNA inh HTS	rRNA inh HTS OD600	rRNA inh HTS RFP
CCc1ccc([C@H]2C[C@H]3[C@H]4C(=O)N(c5ccccc5)C(=O)[C@H]4CC(=O)[C@@H]3CN2S(=O)(=O)c2ccc(C)cc2)cc1	11	10	0.9
CC(C)NC(=O)N(C)C[C@@H]1Oc2c(NC(=O)C3CCCCC3)cccc2C(=O)N([C@@H](C)CO)C[C@H]1C	2	2	-1.3
C[C@@H]1CCCCO[C@H](CN(C)C(=O)c2ccccc2)[C@@H](C)CN([C@@H](C)CO)C(=O)c2cc(NS(=O)(=O)c3ccccc3)ccc2O1	-1	1	3.4
CC(C)[C@H](CO)NC(=O)[C@H]1O[C@@H](n2ccc(=O)[nH]c2=O)[C@H](O)[C@@H]1O	14	7	-0.1
CCC(=O)Nc1ccc2c(c1)C(=O)N(C)C[C@@H](OC)[C@H](C)CN(C(=O)c1ccccn1)[C@H](C)CO2	3	0	-2.0
CCc1csc(N2[C@H](C#N)[C@H](c3ccccc3C3=CCCC3)[C@H]2CO)n1	-12	-32	-3.7
C[C@H]1CN([C@@H](C)CO)S(=O)(=O)c2ccc(C#CCC3CCCC3)cc2O[C@H]1CN(C)C(=O)c1ccccn1	-1	-32	31
Cc1ccc(S(=O)(=O)N(C)[C@H]2C[C@H]3c4[nH]c5ccccc5c4CCN3C[C@H]2[C@H](C)O)cc1	5	10	0.0
CN(C)CCCNC(=O)C[C@@H]1C=C[C@@H](NC(=O)Cc2cccnc2)[C@@H](CO)O1	-2	-4	-2.5
C[C@@H]1CN([C@@H](C)CO)C(=O)c2cc(NS(=O)(=O)c3ccc(F)cc3)ccc2O[C@H]1CN(C)C(=O)Nc1ccccc1	2	-4	0.4
CNC[C@@H]1OCCCC[C@@H](C)Oc2ccc(NS(=O)(=O)c3ccc(C)cc3)cc2C(=O)N([C@H](C)CO)C[C@@H]1C	6	-5	-4.8
COc1ccccc1-c1ccc(C2[C@@H]3CN(Cc4nccs4)C[C@H]2N3)cc1 (stereo partly specified)	-12	-16	-4.9
C[C@H]1CCCCO[C@@H](CN(C)C(=O)Nc2ccc(C(F)(F)F)cc2)[C@@H](C)CN([C@@H](C)CO)C(=O)c2cc(NS(C)(=O)=O)ccc2O1	-2	0	2.3
C[C@H](CO)N1C[C@H](C)[C@@H](CN(C)Cc2ccc(-c3ccccc3)cc2)Oc2c(NS(C)(=O)=O)cccc2C1=O	-7	-13	-1.1
CCC1NC(=O)c2cc3ccccc3cc2-n2c1nc1cc(F)ccc1c2=O (stereo unspecified)	-3	-4	1.3
Cc1ccc(C(=O)Nc2cccnc2)cc1C	2	7	-1.3
Oc1ccc(O)c(C=NNC(=S)NC2CC3CC2C2C=CCC32)c1 (stereo unspecified)	-63	-79	-18
COc1ccc(CN(C)C[C@@H]2Oc3ccc(NC(=O)Nc4ccccc4)cc3CC(=O)N([C@@H](C)CO)C[C@H]2C)cc1	-1	-36	32
COc1ccc(S(=O)(=O)N(C)C[C@H]2OCCCC[C@@H](C)Oc3ccc(NS(C)(=O)=O)cc3C(=O)N([C@H](C)CO)C[C@@H]2C)cc1	-4	1	-2.0

This is a subset; the hit share may differ from the screen's.
